# Assay outcomes deposited in PubChem by ICCB-Longwood Screening Facility, Harvard Medical School.
# CapD inh = CapD enzyme inhibition. purified CapD enzyme, fluorescence intensity read-out; hits give low values; some hits fall short of the stated cut. z-score (concentration not given with the values). 0.23% of 140,000 active;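 active = z-score under -4 in either of two replicates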;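 note: stock transfer was 100 nL into about 40 µL; score is relative to mean and spread of the plate; one replicate is shown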
# AID504770 = growth inhibitors of E. coli YBA685 in a screen for V. cholerae RctB (chromosome II replication) inhibitors. 0.27% of 130,000 active. z-score (no concentration beside the values). E. coli YBA685 rctB-dependent plasmid, OD600 growth, 3 h; hits give low values. AID 504770;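 active = z-score under -2 on both plates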;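 note: wells of about 30 µL received 100 nL stock; score is relative to mean and SD of the test wells; the first replicate is given; strong numbers were not always called active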
# * hit, by the source's call; x = no result given; & = joins results of further samples.
SMILES,CapD inh,AID504770
O=c1c2cc(NS(=O)(=O)c3ccc(Cl)cc3)ccc2oc2ncccc12,0.48,x
COc1cc(C(=O)ON=C2CCSCC2)cc(OC)c1OC,0.27,1.6
O=C(NC(c1ccccc1)c1ccccc1)c1ccc(=O)[nH]c1,x,-0.35
NC(=O)C1CCN(C(=S)Nc2ccc(Cl)cc2)CC1,0.21,-0.35
O=C1CCN(C(=O)c2ccc(COc3ccccc3)cc2)CC1,x,-0.25
CCOC(=O)c1cnc2c(F)ccc(F)c2c1Oc1cccnc1,1.9,0.65
Clc1ccc(CSc2ncc(-c3ccc(Cl)cc3)[nH]2)cc1,12,-0.55
O=C(c1cc2c(s1)-c1ccccc1S(=O)(=O)C2)N1CCCC1,25,-0.25
O=c1[nH]c(-c2ccc(-c3ccc([N+](=O)[O-])cc3Br)o2)nc2sc3c(c12)CCCC3,-0.36,x
CC1(C)CC(=O)C2=C(C1)N=C1SCCC(=O)N1C2c1ccc(Br)cc1 (stereo not given),x,1.7
Cc1ccc(-c2nn(CCC#N)cc2C(=O)O)cc1C,-0.18,0.3
CC1CN(Cc2ccccc2)CCN1 (stereo not given),0.58,0.55
O=C(O)Cc1ccccc1I,-0.01,x
CCC1=CC(c2ccccc2)NC(=S)N1 (stereo not given),0.19,-0.9
O=C(COc1ccc(-c2ccccc2)cc1)Nc1cccnc1,0.52,-0.5
O=C(O)/C=C/C(=O)Nc1ccc(OC(F)F)cc1,x,-0.1
O=C(ON1C(=O)C2C3C=CC(O3)C2C1=O)c1ccc(Cl)s1 (stereo not given),0.18,-0.5
COc1ccc(OC)c(NC(=O)c2ccc(CSc3nnnn3C)cc2)c1,x,-1.5
Cc1cc(C)c(C#N)c(SCC(=O)Nc2ccc(S(N)(=O)=O)cc2)n1,0.72,x
COc1cccc(C2=N/C(=C\c3ccccc3OC)C(=O)N2c2cccc(F)c2)c1,-1.1,x

# 7 records drawn at random from those above, as already listed:
SMILES,CapD inh,AID504770
O=C(COc1ccc(-c2ccccc2)cc1)Nc1cccnc1,0.52,-0.5
O=c1c2cc(NS(=O)(=O)c3ccc(Cl)cc3)ccc2oc2ncccc12,0.48,x
COc1cc(C(=O)ON=C2CCSCC2)cc(OC)c1OC,0.27,1.6
Clc1ccc(CSc2ncc(-c3ccc(Cl)cc3)[nH]2)cc1,12,-0.55
CC1(C)CC(=O)C2=C(C1)N=C1SCCC(=O)N1C2c1ccc(Br)cc1 (stereo not given),x,1.7
O=C1CCN(C(=O)c2ccc(COc3ccccc3)cc2)CC1,x,-0.25
Cc1cc(C)c(C#N)c(SCC(=O)Nc2ccc(S(N)(=O)=O)cc2)n1,0.72,x

# One compound at a time (already shown).
# O=C(ON1C(=O)C2C3C=CC(O3)C2C1=O)c1ccc(Cl)s1 (stereo not given) in the list: CapD inh = 0.18; AID504770 = -0.5
# COc1cc(C(=O)ON=C2CCSCC2)cc(OC)c1OC in the list: CapD inh = 0.27; AID504770 = 1.6
# CC1(C)CC(=O)C2=C(C1)N=C1SCCC(=O)N1C2c1ccc(Br)cc1 (stereo not given) in the list: CapD inh = x; AID504770 = 1.7

# (next part)
SMILES,CapD inh,AID504770
Cc1ccccc1C(=O)CC#N,x,-3.2*
Cc1cccc(NC(=O)OC2CCCCC2)c1,0.81,-0.15
CCC(=O)Nc1ccc(C2=CSC3=NS(=O)(=O)CCN23)cc1,x,0.7
O=C(Nc1ccccc1C(=O)N1CCc2ccccc2C1)c1ccccc1,-0.25,-0.7
N#Cc1c(NC(=O)C2CC(=O)NN2Cc2ccccc2)sc2c1CCCC2 (stereo not given),x,-0.35
Cc1cc(-n2cnc(-c3cn(C)nc3C)n2)no1,0.55,0.9
O=C(Cn1c(=O)c2cccn2c2ccccc21)NC1CCCC1,0.15,-2.5
CCc1ccc(C(=O)Nc2nccs2)cc1,-0.22,-1.1
CCN(CC)NC(=S)Nc1ccccc1,x,1.1
O=C(CC1CCCC1)Nc1noc2ccccc12,0.42,-0.7
O=c1cc2cc(O)[nH]c(=O)c2c(O)[nH]1,9.8,x
CC(Sc1ncnc2ccccc12)C(=O)Nc1cccc(Cl)c1 (stereo not given),-1.5,-0.3
O=C1S/C(=C\c2cn(Cc3ccccc3)c3ccccc23)C(=O)N1CN1CCCCC1,-1.7,3.4
CCOC(=O)C1=C(C)N=c2s/c(=C/c3ccc4c(c3)n(C)c(=O)n4C)c(=O)n2C1c1ccc(OC)cc1 (stereo not given),-0.21,x
Cc1csc(NC(=O)c2ccco2)c1C(=O)c1ccccc1,-0.55,-0.3
O=C(OCc1ccc(C#Cc2ccccc2)s1)c1cccs1,-1.4,-0.65
O=C(O)c1ccccc1C(=O)Nc1ccc(-n2ccc(C(F)(F)F)n2)cc1,-0.44,-1.2
COc1cccc(-c2cn3c4c(=O)n(C)c(=O)n(C)c4nc3n2-c2ccc3c(c2)OCCO3)c1,0.19,x
CC(=O)Nc1ccc(-n2ccnc2P(=O)(O)c2ccccc2)cc1,x,-0.75
O=C(Cc1ccccc1)NC1CCCCCC1,0.24,-0.7
Cc1ccccc1N/C(=N\S(=O)(=O)c1ccccc1)c1ccccc1,-0.42,1.4
Cc1c(Cl)cccc1N=C1NC(=O)/C(=C/c2ccco2)S1,-1,0.15
CN=C1SC(CC(=O)Nc2cccc(C(=O)O)c2)C(=O)N1C (stereo not given),0.14,-0.3
COc1ccccc1C(=O)Nc1cccc2nsnc12,0.39,-0.3
COC(=O)c1sc2nc(-c3ccccc3)c(S(C)(=O)=O)cc2c1N,0.3,x
COCOc1ccc(C(=O)O)cc1OC,-0.36,-1.3
O=C(CN1CCN(c2ccccc2)CC1)N1c2ccccc2CCc2ccccc21,x,-1.1
C=CCn1c(COc2ccc(Cl)cc2)nnc1SCC(=O)N1CC(=O)Nc2ccccc21,x,-0.35
O=C(/C=C/c1ccc(F)cc1Cl)NNC(=O)OCC1CC=CCC1 (stereo not given),16,x
NCCSc1ccc(F)cc1,0.7,0.55
CCOC(=O)CSc1nnc(NC(=O)c2ccccc2)s1,0.04,-0.6
C=CCNC(=O)C(C)N1CCN(C)CC1 (stereo not given),x,-0.25
O=C(CSc1nncn1-c1ccccc1)N1CCCC1c1ccc2c(c1)OCCO2 (stereo not given),x,-0.05
COC(=O)c1sccc1NC(=O)CN1CCN(c2cccc(Cl)c2)CC1,0.22,x
O=c1[nH]c2c(s1)C1c3ccccc3OC3CCCC(S2)C31 (stereo not given),x,-0.05
N#CC(C#N)=Cc1cc2ccccc2nc1N1CCCCC1,x,-0.65
COc1cc(C(=O)Nc2ccc(-c3nc4ccccc4s3)c(O)c2)ccc1OCc1ccc(Cl)cc1,-0.86,x
CCN1CCN(C(=O)c2sc3ncn(CC)c(=O)c3c2C)CC1,-0.24,x
CCOC(=O)CN(C(=O)c1ccccc1[N+](=O)[O-])C(C)(C)C,-0.57,x
CC1CCCCC1NC(=O)c1cc(=O)c2ccccc2o1 (stereo not given),x,0.1

# Reformatted with each value named: 4 of the compounds above.
O=C(OCc1ccc(C#Cc2ccccc2)s1)c1cccs1
  CapD inh = -1.4
  AID504770 = -0.65

O=C(O)c1ccccc1C(=O)Nc1ccc(-n2ccc(C(F)(F)F)n2)cc1
  CapD inh = -0.44
  AID504770 = -1.2

COc1cccc(-c2cn3c4c(=O)n(C)c(=O)n(C)c4nc3n2-c2ccc3c(c2)OCCO3)c1
  CapD inh = 0.19
  AID504770 = x

CC(=O)Nc1ccc(-n2ccnc2P(=O)(O)c2ccccc2)cc1
  CapD inh = x
  AID504770 = -0.75

# An excerpt of these results, with two lines to a compound:
# Second line of a record: CapD inh	AID504770
- COc1ccccc1C(=O)Nc1cccc2nsnc12
    0.39	-0.3
- O=C(/C=C/c1ccc(F)cc1Cl)NNC(=O)OCC1CC=CCC1 (stereo not given)
    16	x
- Cc1ccccc1N/C(=N\S(=O)(=O)c1ccccc1)c1ccccc1
    -0.42	1.4

# Continued:
SMILES,CapD inh,AID504770
C=CCSc1nnc(-c2ccc(C(F)(F)F)nc2C)o1,0.85,-0.5
CC(=O)CSC(=O)c1c(-c2c(Cl)cccc2Cl)noc1C,-0.71,x
COc1ccc2nc(SCC(=O)Nc3ccc(Oc4ccccc4)cc3)[nH]c2c1,-0.06,x
Cc1cc(NC(=O)CSc2nc3ccccc3s2)no1,-0.02,-0.65
c1ccc(CC2CCCNC2)cc1 (stereo not given),x,-0.6
CNC(=O)c1cc2oc3ccccc3c2n1C,4,1.5
CC(C)OC(=O)C(C)Oc1ccc2c(=O)c(Oc3ccc(C(C)(C)C)cc3)coc2c1 (stereo not given),-0.68,x
CCN(Cc1cc(=O)n2c(C)csc2n1)c1ccc(OC)cc1,2.1,0.35
COc1ccc(/C=N/N2C(=O)C3C=CC=CC3N=C2C)cc1OC (stereo not given),x,1
O=C(O)C1CC(=O)N(c2cccc(C(F)(F)F)c2)C1 (stereo not given),x,-1.1
Cc1nnc(SC(=O)N2c3ccccc3Sc3ccccc32)s1,-0.24,0.1
Nc1nc(-c2ccccc2)c(-c2ccccc2)o1,82,-0.55
CCOCCSc1nnc2n(-c3ccccc3)c(=O)c3ccccc3n12,x,-0.2
CC(=O)Nc1cccc(-c2csc(C)n2)c1,x,-0.4
Cc1ccccc1NC(=O)CS(=O)(=O)c1ccccc1,0.07,0
O=C(c1ccc(F)cc1)C1CCN(S(=O)(=O)c2cccc(F)c2)CC1,-0.82,x
N#CC1=C(N)Oc2c(c(=O)oc3ccccc23)C1Cc1ccccc1 (stereo not given),x,0.05
COC(=O)c1cc(CSc2ncnc3sccc23)oc1C,x,0
C/C(=N\NC(=O)CSc1ncccn1)c1ccc(C)cc1,0.11,-0.4
Cc1cc(C)nc(NNC(=S)NC2CC3CCC2C3)n1 (stereo not given),x,0.8
C=CCOc1ccc(C(=O)N(Cc2ccccc2)C2CCS(=O)(=O)C2)cc1 (stereo not given),-0.18,-0.05
CC1=Nc2nc(N3CCCC3)c(C#N)c3c4c(nc(c23)N1)N(c1ccc(S(N)(=O)=O)cc1)C(=O)C4,x,0.3
CCOc1cccc2cc(C(=O)N3CCc4ccccc43)c(=O)oc12,-0.43,0.85
CCc1noc(N)c1C(=O)Nc1ccc(C)c(Cl)c1,-0.82,1.4
Cc1cc(C)c2c(N)c(C(=O)NN3CC(=O)N(c4ccccc4)CC3=O)sc2n1,41,-0.3
COc1ccccc1C1CCN(S(=O)(=O)c2ccc(NC(C)=O)cc2)CC1,0.06,x
Cc1cc(-c2ccc(C)c(S(=O)(=O)N3CCN(C4CCCCC4)CC3)c2)n[nH]1,-1.3,1.4
CCc1c(C)nc(SCC(=O)N2CCN(c3ccccc3)CC2)[nH]c1=O,0.36,-0.7
CCOC(=O)C1=C(C)NC(=O)NC1c1cn(-c2ccccc2)nc1-c1ccc(OC)cc1 (stereo not given),-0.28,x
COc1ccc(Br)cc1CNC(=O)Cn1ncc2c(=O)oc3ccccc3c21,-0.3,1.5
CCOC(=O)Cn1c(=O)c(C(=O)NC(=O)OCC)cn(Cc2ccccn2)c1=O,0.2,2.2
CC(C)COc1ccc(C(O)c2ccccc2)cc1 (stereo not given),6.6,1.1
Cc1ccc(S(=O)(=O)C(F)(F)F)cc1N,-0.24,1.5
Clc1cc2c(c(CSc3nnc(-c4ccco4)n3-c3ccccc3)c1)OCOC2,x,0.1
NNC(=O)c1cc2sc(Cl)cc2[nH]1,0.51,-0.5
CCC(=O)c1cn(CC(=O)N2CCOCC2)c2ccccc12,-0.5,1.1
Cn1c(O)c(/C=C/c2ccc3ccccc3n2)c(=O)[nH]c1=O,-0.57,-0.45
CC(=O)C12c3ccccc3C(c3ccccc31)C1C(=O)N(c3ccc(C)c(Cl)c3)C(=O)C12 (stereo not given),0.1,x
COC(=O)c1ccc(OCCCCCCOc2ccc(C(=O)OC)cc2)cc1,-0.53,x
CC(C)c1ccc(/C=N/NC(=O)c2ccc3ccccc3c2)cc1,0.59,x
O=C(NS(=O)(=O)c1ccc(Br)cc1)c1ccccc1O,2.1,-0.9
Cc1ccc(C)c(N2C(=O)c3ccc(C(=O)N4CCCN(C)c5nc6ccccc6nc54)cc3C2=O)c1,x,1
O=C(c1ccc2c(Cl)c3c(nc2c1)CCC3)N1CCCC1,1.1,-0.4
COc1ccc(C(=O)n2c(SC)nc3ccccc32)cc1OC,0.67,-0.65
COc1cc(/C=C2\C(=O)NC(=S)N(c3ccc(Cl)cc3)C2=O)c([N+](=O)[O-])cc1OC,4.7,x
S=C=NCCn1ccc2ccccc21,x,-3.8*
Cc1ccc(C(=O)OC2CCCN(C)C2)cc1 (stereo not given),-0.12,-1
O=C1CSC2(C(=O)N(CN3CCCCC3)c3ccccc32)N1c1ccccc1 (stereo not given),0.72,0
CN1c2ccccc2C(C)(C)C12CC(c1ccc(S(=O)(=O)N(C)C)cc1)=NO2 (stereo not given),x,-0.1
Nc1cccc(-c2nc3ccc(C(=O)c4ccccc4)cc3[nH]2)c1,-0.18,0.4
O=C(Nc1cccc(Br)c1)C1C(c2ccccc2)=C1c1ccccc1,-0.17,0.45
CCOC(=O)N1CCN(C(=O)c2ccc3c(=O)n(CCC4=CCCCC4)c(=S)[nH]c3c2)CC1,0.08,0.1
CCC1C/C(=C\c2ccc(OCC(N)=O)cc2)C(=O)/C(=C/c2ccc(OCC(N)=O)cc2)C1 (stereo not given),-0.46,x
O=C(CSc1ccccc1)Nc1ccncc1,0.58,-0.25
O=c1[nH]nc(Cc2ccncc2)c2ccccc12,0.96&-0.14,-0.45
O=C(CN1CCCc2ccccc21)N/N=C/c1ccccc1,x,-0.55
O=C(O)CCc1ccc(-c2ccccc2)n1-c1cccc(O)c1,0.26,0.45
NC(=O)c1cc(-c2ccc(COc3ccccc3)cc2)nc2ccccc12,75,-0.3
CCc1ccccc1NC(=S)N(Cc1ccco1)C(C)c1ccco1 (stereo not given),0.65,0.6
Cc1cccc(C(=O)N2c3c(C)cccc3C(Nc3ccccc3C)CC2C)c1 (stereo not given),0.28,x
CCCCCCCOC(=O)C1=C(C)NC(=O)NC1c1cc(OC)c(OC)c(OC)c1 (stereo not given),-0.02,x
CCN(CC)c1ccc(C(c2c(C)n(C)n(-c3ccccc3)c2=O)c2c(C)n(C)n(-c3ccccc3)c2=O)cc1,-0.24,x
